Source: PubChem (National Center for Advancing Translational Sciences (NCATS))
miR-21 reporter: raises the signal of a miR-21 reporter | HeLa miR-21 FLuc reporter, luciferase, 48 h | Potency, µM (highest dose often 38.3 µM), for inactives: at the highest dose reporter change, positive = more light | 340,000 tested, under 10 active | AID 2288; active = well fitted rising curve with a large enough effect; inconclusive = small, poorly fitted or top-dose-only effect; inactive = no such curve, though single readings can be large or run the other way;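 further: % of control where 0% means no effect; miR-21 action dims this reporter so a rising signal means less miR-21 action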
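HeLa miR-21-FLuc reporter line, endogenous miR-21; 2000 cells/well in DMEM/10% FBS; compound titration up to ~40uM final, 48 h, 37 degree Celsius; luciferase detection reagent, 15 min lysis, CCD luminescence.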
The depositor's hits bear a star; ? = inconclusive; [ ] = remark or other dose.

compound | miR-21 reporter
CSc1ncc(C(=O)NCc2ccc(C)cc2)c(C)n1 | -4%
CCN1c2ccccc2-c2nc(SCC(=O)Nc3cc(F)ccc3F)ncc2S1(=O)=O | ?
CCn1cc2nc(SCc3cccc(C(F)(F)F)c3)n(Cc3ccc(Cl)cc3)c(=O)c2n1 | ?
O=C(CCS(=O)(=O)c1cccc2nonc12)Nc1ccc(F)cc1F | -3%
COC(=O)c1cccc(Cn2nnc3sc4c(c3c2=O)CCC(C(C)(C)C)C4)c1 (stereo not drawn) | 10%
CNc1nc2c(c(=O)n(C)c(=O)n2C)n1CC(O)COc1ccc(OC)cc1 (stereo not drawn) | ?
CCCc1ccc(S(=O)(=O)N2CCC(c3nnc(-c4cccc(C)c4)o3)CC2)cc1 | -5%
Cc1ccc(C(=O)N2CCc3cc(CNC(=O)COc4ccccc4)ccc32)cc1 | 9%
CCN(CC)S(=O)(=O)c1ccc2c(c1)N(CC(=O)N1CCN(c3ccc(Cl)cc3)CC1)C(=O)CO2 | 1%
Cn1c(=O)c2c(nc3n(-c4ccc(O)cc4)c(-c4ccc(Br)cc4)cn23)n(C)c1=O | -1%
COc1ccc(CCNC(=O)c2cc(-c3ccccc3)nc3ccccc23)cc1OC | 13%
O=C(NC1(C(F)(F)F)N=C(c2ccccc2)N(C2CCCCC2)C1=O)c1ccc(F)cc1 (stereo not drawn) | 3%
COc1ccc(OC)c(NC(=O)CSc2ccnc(=O)[nH]2)c1 | 4%
COc1ccc(-c2cn3nc(N4CCC(C(=O)Nc5cccc(OC)c5)CC4)sc3n2)cc1 | -19%
CCC(Cc1ccccc1)NC(=O)c1oc(=O)c2ccccc2c1-c1ccccc1 (stereo not drawn) | 2%
CSc1ccc(-c2nnc(NC(=O)c3ccc4c(c3)OCCO4)o2)cc1 | -5%
O=C(CCNS(=O)(=O)c1ccc2c(c1)CCCC(=O)N2)NCc1ccc(Cl)cc1 | 1%
CC(=O)c1cccc(NC(=O)CN2C(=O)CC(c3ccc(C)cc3C)=Nc3ccccc32)c1 | 1%
Cc1c(C(=O)Nc2ccc(F)cc2F)sc2nc3n(c(=O)c12)N=C(c1ccccc1)CS3 | -44%
O=C(CCNS(=O)(=O)c1ccc(Br)s1)Nc1ccc(Br)cc1 | 10%
COC(=O)c1ccccc1NC(=O)Cn1c(=O)cc(C)c2c(C)nn(C)c21 | 0%
O=C(NC1CC(=O)N(c2ccccc2)C1)C(c1ccccc1)c1ccccc1 (stereo not drawn) | 5%
CCc1ccc(C2N=C(N)Nc3nc4ccccc4n32)cc1 (stereo not drawn) | -5%
COc1ccc(-n2c(SCc3nc(-c4ccc(C)cc4)no3)nnc2-c2ccccc2)cc1 | 0%
COCCCNC(=O)Cn1c(=O)n(-c2ccc(C)c(C)c2)c(=O)c2c3c(sc21)CCCCC3 | -5%
Cc1ccc(-n2ncc(C(=O)NCCCN3CCc4ccccc4C3)c2C2CCN(C(=O)OC(C)(C)C)CC2)c(C)c1 | 17%
CC1CCN(c2nc3ccc(C(=O)NCc4ccccc4Cl)cc3s2)CC1 | -34%
COc1ccccc1NC(=O)CCS(=O)(=O)c1ccc2nc(C)sc2c1 | -2%
Cc1ccc(CNc2ccc(-c3nc(-c4ccccn4)no3)cc2[N+](=O)[O-])cc1 | -7%
COc1ccc(S(=O)(=O)N(CC(=O)NCCSCc2ccccc2)c2ccc(C)cc2)cc1 | 2%
CCOc1ccccc1-c1nc(SCC(=O)c2ccc(OC)c(Br)c2)n[nH]1 | 0%
COc1ccc(NC(=O)CCS(=O)(=O)c2cc3c(cc2C)NC(=O)CO3)cc1Cl | ?
CCCOC(=O)c1ccc(NC(=O)C2CC(=O)N(c3ccc(C)cc3)C2)cc1 (stereo not drawn) | -2%
Cc1cccc(-c2nc3c(C#N)c[nH]n3c2NC2CCCCC2)c1 | 9%
O=C(COc1ccccc1)Nc1ccccc1C(=O)OCc1cc(=O)n2nc(C3CC3)sc2n1 | 2%
Cc1ccc(C(c2sc3nc(-c4ccco4)nn3c2O)N2CCN(Cc3ccccc3)CC2)cc1 (stereo not drawn) | ?

Overlap with the part before: 3 compounds, followed by the next part.
compound | miR-21 reporter
Cc1cccc(-c2nc3c(C#N)c[nH]n3c2NC2CCCCC2)c1 | 9%
O=C(COc1ccccc1)Nc1ccccc1C(=O)OCc1cc(=O)n2nc(C3CC3)sc2n1 | 2%
Cc1ccc(C(c2sc3nc(-c4ccco4)nn3c2O)N2CCN(Cc3ccccc3)CC2)cc1 (stereo not drawn) | ?
O=C(Nc1ccc(NC(=O)c2cccs2)cc1)c1ccc(Br)cc1 | -11%
COc1ccc(Cn2c(CO)cnc2SCc2ccccc2C)cc1 | -56%
COc1ccc(NC(=O)Cn2c(C)cc3ccccc3c2=O)c(OC)c1 | -3%
CN1CCN(C(CNC(=O)C(=O)Nc2ccc(F)cc2)c2cccnc2)CC1 (stereo not drawn) | ?
COc1ccc(OCC(=O)N2CCN(C(=O)c3cc(OC)c(OC)c(OC)c3)CC2)cc1 | 0%
CC(C)c1ccc2occ(CC(=O)Nc3cccc(C(F)(F)F)c3)c2c1 | ?
CCCC[C@]12Cc3cc(OC)c(OC)cc3C(O1)c1c(cc(-c3ccccc3)oc1=O)O2 | 1%[7.66 µM]
CCN1CCN(c2oc(/C=C/c3cc(OC)c(OC)c(OC)c3)nc2C#N)CC1 | 6%
COc1cc(-c2nc3ncccn3c2Nc2ccc(C)cc2C)ccc1O | -1%
COc1ccc(Cc2nc3c4cnn(-c5ccccc5F)c4ncn3n2)cc1 | -36%
CCOC(=O)c1cc(S(=O)(=O)N2CCN(c3ccc(F)cc3)CC2)[nH]n1 | -5%
Cn1cnc(S(=O)(=O)N2CCC(C(=O)N3CCN(c4ccc(Cl)cc4)CC3)CC2)c1 | 6%
CCN(CC)CCNC(=O)c1ccc2nc(CCc3ccccc3)oc2c1 | -38%
Cc1ccc(-c2cn3c(n2)sc2cc(C(=O)NC4CCCCCC4)ccc23)c(C)c1 | 9%
Clc1cccc(-n2ncc3c(NCCCc4ccccc4)ncnc32)c1 | -20%
O=C(c1ccc2c(c1)N(Cc1ccccc1F)C(=O)c1ccccc1S2(=O)=O)N1CCN(c2ccccn2)CC1 | 25%
Cc1ccc(-c2nc3cc(C(C)C)ccc3o2)cc1NC(=O)c1cccs1 | -23%
O=C(Nc1cccc(Cl)c1)C1CCN(c2nc3ccccc3nc2C(F)(F)F)CC1 | ?
CCc1cccc(NC(=O)C(CC(C)C)NS(=O)(=O)c2ccc3c(c2)oc(=O)n3C)c1 (stereo not drawn) | 0%
CCOc1ccc(NC(=O)CC2Nc3cccc4cccc(c34)NC2=O)cc1 (stereo not drawn) | 0%
Cc1ccc(CNC(=O)C2CCCCN2S(=O)(=O)c2ccc(F)cc2)cc1 (stereo not drawn) | 6%
Cc1ccc(C2=CC(c3ccccc3C)n3c(nc4ccccc43)N2)cc1 (stereo not drawn) | -14%
CCOC(=O)c1[nH]c(C)c(CCC(=O)NCc2ccc(OC(C)C)cc2)c1C | 14%
O=C(Cn1c(=O)oc2cc(S(=O)(=O)NCc3ccccc3)ccc21)NCc1ccc(Cl)cc1 | 15%

A draw from above in order of heavy-atom count, falling:
compound | miR-21 reporter
O=C(c1ccc2c(c1)N(Cc1ccccc1F)C(=O)c1ccccc1S2(=O)=O)N1CCN(c2ccccn2)CC1 | 25%
O=C(Cn1c(=O)oc2cc(S(=O)(=O)NCc3ccccc3)ccc21)NCc1ccc(Cl)cc1 | 15%
CCc1cccc(NC(=O)C(CC(C)C)NS(=O)(=O)c2ccc3c(c2)oc(=O)n3C)c1 (stereo not drawn) | 0%
O=C(Nc1cccc(Cl)c1)C1CCN(c2nc3ccccc3nc2C(F)(F)F)CC1 | ?
Cc1ccc(CNC(=O)C2CCCCN2S(=O)(=O)c2ccc(F)cc2)cc1 (stereo not drawn) | 6%

More entries follow.
compound | miR-21 reporter
CCOc1ccc(N2CC(NC(=O)c3cc4ccccc4o3)CC2=O)cc1 (stereo not drawn) | 0%
Cc1ccc(C)c(NC(=O)C(=O)NCCc2csc(-c3cccc(F)c3)n2)c1 | -2%
Cc1cccc(N(C)S(=O)(=O)c2c(C(=O)N3CCCCCC3)c(C)n(C)c2C)c1 | 1%
CN(C)CCN(Cc1ccco1)C(=O)c1oc2ccccc2c1NC(=O)c1cccc(F)c1 | ?
CCOc1ccc(-c2c(C)nn3c(C)c(C(=O)NCc4ccc(C)o4)cnc23)cc1OCC | 0%
CCN(CCCNC(=O)c1ccc(Sc2ccc(F)cc2)c(NC(C)=O)c1)c1ccccc1 | 9%
CCCOC1(C(F)(F)F)NC(=O)N(c2cccc(Cl)c2)C1=O (stereo not drawn) | 0%
CCCN1C(C(=O)c2ccccc2)=C(OC(=O)c2ccc(C)cc2)c2ccccc2S1(=O)=O | ?
Cc1c2cnn(CC(=O)Nc3cccc(C(F)(F)F)c3)c(=O)c2c(C)n1Cc1ccccc1Cl | 3%
CC(C)CCOc1ccc(C2N=C(N)Nc3nc4ccccc4n32)cc1 (stereo not drawn) | 24%
O=C(C1CCC(CNS(=O)(=O)c2ccc(Br)s2)CC1)N1CCN(c2ccccc2)CC1 (stereo not drawn) | 7%
COc1cc(NC(=O)C2CCN(S(=O)(=O)Cc3ccccc3)CC2)c(OC)cc1Cl | -5%
COc1ccc(S(=O)(=O)N2CCC(N3CCN(Cc4ccccc4)C(=O)C3=O)CC2)cc1 | 6%
CCOC(=O)c1c(NC(=O)COc2ccc(Cl)cc2C)sc2c1CCCCC2 | -4%
Cc1cc(C)c(NC(=O)CN(C)S(=O)(=O)c2ccc3c(c2)c(=O)n(C)c(=O)n3C)c(C)c1 | -2%
COc1ccc(CCNC(=O)c2cnc3ccc(C)cn3c2=O)cc1 | -2%
Cc1nc2sccn2c(=O)c1S(=O)(=O)NCc1ccc(F)cc1 | 0%
Cc1nnc2c(N3CCN(c4ccccc4F)CC3)nc3ccc(C(=O)c4ccccc4)cc3n12 | -1%
Cc1ccc2c(CC(=O)Nc3ccc(S(=O)(=O)N4CCCCC4C)cc3)coc2c1 (stereo not drawn) | -7%
CC1=C(c2ccc(C)c(C)c2)S(=O)(=O)N(Cc2ccc(C(=O)NCc3ccc(C)cc3)cc2)C1=O | -3%
CCCn1c(CCC(=O)Nc2cc(OC)cc(OC)c2)nc2cccnc21 | 0%
O=c1cc(-c2ccc(F)cc2)nc(SCc2nc(-c3cccc(C(F)(F)F)c3)no2)[nH]1 | 2%
Cc1nn(-c2ccc(F)cc2)c(-n2cccc2)c1C(=O)N1CCN(c2ccccc2F)CC1 | 3%
COc1ccc(N(CC(=O)Nc2cccc(C(C)=O)c2)S(=O)(=O)c2ccccc2)c(OC)c1 | 26%
CCOC(=O)c1[nH]c2c(c1Cc1ccccc1)C(=O)CC(c1ccc(Cl)cc1)C2 (stereo not drawn) | 16%
COc1ccccc1N(CC(=O)NCCSc1ccccc1)S(=O)(=O)c1ccc(C)cc1 | 27%
COc1ccc(CCNC(=O)c2ccc3c(c2)N(Cc2ccc(F)cc2)C(=O)CS3)cc1OC | ?
Cc1nc(-c2ccc(F)cc2)sc1CCNC(=O)Cc1ccc(F)cc1 | -16%
COC(=O)CSc1ncc2c(n1)-c1ccccc1N(Cc1cccc(F)c1)S2(=O)=O | -10%
CN(C)CCCNc1oc(/C=C/c2ccc(F)cc2)nc1C#N | -19%
Cc1ccc(CNC(=O)c2cc3ccc4cccnc4c3[nH]2)cc1 | -20%
O=C(NCc1ccccc1)c1cc(-c2cccc(Cl)c2)on1 | -32%
COc1ccc(F)cc1S(=O)(=O)Nc1cccc(-c2ccc(N3CCCCCC3)nn2)c1 | -23%
CC(C)(C)OC(=O)N1CCC(c2c(C(=O)NCc3ccccc3)cnn2-c2ccc(F)cc2)CC1 | -4%
NC(=O)C1CCN(c2ncnc3c2cnn3-c2cccc(Cl)c2)CC1 | -37%
CC1CCc2c(sc3nnn(Cc4cccc(C(=O)OC(C)C)c4)c(=O)c23)C1 (stereo not drawn) | 1%
CCOC(=O)c1cnc2cc(Cl)c(OC)cc2c1Nc1ccc(Br)cc1C | 0%
Cc1ccc(OCc2cc(=O)n3c4c(sc3n2)CCCC4)cc1C | -14%
CCOC(=O)c1noc2ncnc(Nc3cccc(C(F)(F)F)c3)c12 | -21%
Cc1ccc(Cl)cc1NC(=O)CSc1nc(C)c(C)c(C)c1C#N | -16%
Cc1ccc2nc(NC(=O)CSc3nccn3Cc3ccc(Cl)cc3)sc2c1 | -1%
COc1ccccc1Cn1ccn(CC(=O)Nc2c(C)cc(C)cc2C)c(=O)c1=O | -2%
CCOc1ccc(-c2c(C)nn3c(C)c(C(=O)NCCN(C)C)cnc23)cc1OCC | -3%
CSc1cccc(NC(=O)CN2C(=O)CCc3cc(S(=O)(=O)N4CCCCC4)ccc32)c1 | 0%
COc1cccc(CN(C(=O)c2oc3ccc(Br)cc3c2C)C2CCS(=O)(=O)C2)c1 (stereo not drawn) | 3%
CCOc1ccc(CCNC(=O)Cn2nnc(-c3ccccc3)n2)cc1OCC | -6%
CCN1CCN(c2oc(/C=C/c3ccccc3OC)nc2C#N)CC1 | -12%
CCS(=O)(=O)N1CCc2cc(C(=O)Nc3ccc(C)c(Cl)c3)ccc21 | -1%
CCCCOc1ccc(C(=O)NCCc2sc(-c3cccc(F)c3)nc2C)cc1 | 9%
COc1cc(-c2nc(SCC(=O)Nc3ccc4c(c3)OCO4)c(-c3ccccc3)[nH]2)cc(OC)c1OC | 22%
CCOC(=O)c1ccccc1NC(=O)CSc1nc2ncccc2o1 | -4%
O=c1ccc2cc(S(=O)(=O)NCc3ccc(Br)cc3)ccc2[nH]1 | -8%
CCOc1ccccc1NC(=O)CSc1nc2ccccc2nc1Cc1ccc(C)cc1 | -6%
Oc1c(C(c2ccccc2Cl)N2CCOCC2)sc2nc(-c3ccco3)nn12 (stereo not drawn) | -8%

A portion of the library (hit frequency here may not be typical).
